miR-21 FLuc: raises the signal of a miR-21 reporter; HeLa miR-21 FLuc reporter, luciferase, 48 h; Potency, µM (top dose mostly 38.3 µM), for inactives: top-dose reporter change, positive = more light; 340,000 tested, under 10 active; AID 2288; active = well fitted rising curve with a large enough effect; inconclusive = small, poorly fitted or top-dose-only effect; inactive = no such curve, though single readings can be large or run the other way;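 note: % of control where 0% means no effect; miR-21 action dims this reporter so a rising signal means less miR-21 action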
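Compounds were titrated across several concentrations (up to approximately 40 uM) and incubated 48 hours with HeLa miR-21-FLuc reporter cells (miR-21 target sequence downstream of FLuc, endogenous miR-21). Readout was firefly luciferase luminescence after lytic detection reagent.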
Rango release inh: prevents RanGTP from dissociating the Rango-importin beta complex | 0.071% of 340,000 active | Potency, µM (highest dose often 46.1 µM), for inactives: top-dose activity change, negative = inhibition | AID 540253 | Biochemical FRET Rango-importin beta, RanGTP-induced dissociation; active means falling FRET ratio curve, often poorly fitted, with flat reads before Ran was added; inconclusive means other falling curves, or compound fluorescence or quenching; inactive means flat or rising ratio curve;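 note: potency is the fitted concentration of half-maximal effect; % of control where 0% means no effect; nearly all actives have a fitted effect of over 45% in size; -100% = wells without RanGTP and RCC1; the record marks most hits as doubtful in a second field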
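Rango/importin beta premix (0.1/0.25 uM final), PBS + 1 mM DTT + 0.02% Tween-20 + 0.1% BSA; cpd 5 min RT; FRET pre-read; + RanGTP-RCC1 (0.6 uM Ran, 2 mM GTP, 0.2 uM RCC1); 45 min RT; FRET post-read, ex 430, em 486/530 nm.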
Rango-impB inh: Rango-importin beta binding inhibition; Q14974; Rango CFP/YFP FRET sensor + importin beta, 45 min; Potency, µM (highest dose often 92.2 µM), inactives show at the top dose inhibition of complex formation; 0.031% of 340,000 active; active = rising FRET ratio curve, often small or poorly fitted; inconclusive = mostly compound fluorescence or quenching in the first reads; inactive = flat curves in all reads;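 note: potency is the fitted concentration of half-maximal effect; 0% = DMSO wells and 100% = buffer wells lacking importin beta; nearly all actives have a fitted effect of over 15% in size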
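FRET biosensor Rango (snurportin 1 IBB between N-terminal EYFP and C-terminal Cerulean), 50 nM in PBS/1 mM DTT/0.02% Tween-20/0.1% BSA, preincubated 5 min RT with compound; 0.125 microM importin beta added, 45 min RT, CFP/YFP FRET ratio read.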
GLA inh pH 4.5: blocks human alpha-galactosidase A at pH 4.5 | 230,000 tested, under 10 active | activity change, negative = inhibition, % at 105 µM | purified enzyme, 4-MU-alpha-Gal fluorescence, pH 4.5; inconclusive = small, poorly fitted or top-dose-only inhibition, or a rising curve; inactive = flat fitted curve, though single readings scatter; no compound was filed as active;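 note: 0% = full activity with enzyme and -100% = basal without enzyme; dose as in the result columns while the protocol names 77 µM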
Target sequence (P06280 whole entry, looked up): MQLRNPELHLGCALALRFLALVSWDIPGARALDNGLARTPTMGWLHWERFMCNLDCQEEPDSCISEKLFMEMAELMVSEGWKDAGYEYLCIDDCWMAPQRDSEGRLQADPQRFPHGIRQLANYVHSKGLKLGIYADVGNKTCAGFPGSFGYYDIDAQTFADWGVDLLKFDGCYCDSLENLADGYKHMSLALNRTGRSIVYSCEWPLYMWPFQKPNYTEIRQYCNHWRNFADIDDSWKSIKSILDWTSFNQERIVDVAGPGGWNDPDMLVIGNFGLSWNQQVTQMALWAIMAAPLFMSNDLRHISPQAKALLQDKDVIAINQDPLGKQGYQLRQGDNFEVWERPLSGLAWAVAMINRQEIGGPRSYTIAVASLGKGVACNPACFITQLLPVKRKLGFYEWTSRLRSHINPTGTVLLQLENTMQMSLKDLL
Active calls of the source: *; ? = inconclusive; . = not tested or not shown. Not all compounds are listed. The share of hits here may be higher or lower than overall.

(1) COc1ccc(CC(=O)OCC(=O)Nc2ncc(Cl)c(C)c2Cl)cc1
(2) Cc1cc(NC(=O)CCN2C(=O)C3C4C=CC(C4)C3C2=O)c2ccccc2n1 (centres undefined)
(3) Clc1cc(Cl)c2nc(N3CCCCC3)sc2c1
(4) COc1ccc(/C(N)=N/OC(=O)Cc2cccs2)cc1
(5) CC(C)(C)NC(=O)C(c1ccc(F)cc1)N(CCc1ccccc1)C(=O)c1ccn[nH]1 (centres undefined)
(6) CC(=O)C1(C)C(=O)N(c2ccc(C)cc2)C(=O)N1c1ccc(C)cc1 (centres undefined)
(7) O=C(NCCCn1ccnc1)c1cccc(S(=O)(=O)Nc2ccccc2F)c1
(8) Cc1ccc(OCC(=O)c2cc(C)c(C)cc2C)c([N+](=O)[O-])n1
Screen / compound no.	1	2	3	4	5	6	7	8
Rango-impB inh	?	8.3%	-4.3%	-5.6%	1.0%	1.4%	?	-2.0%
GLA inh pH 4.5	.	2	1	-3	-4	.	3	1
Rango release inh	-1%	-13%	12%	-4%	-2%	9%	-4%	-5%
miR-21 FLuc	.	7%	-26%	-66%	3%	.	1%	6%

(9) Cc1nc2c(C)cccn2c1C(=O)c1ccccc1
(10) O=C(Nc1ccccc1C(=O)Nc1nnc(C(F)(F)F)s1)c1ccccc1
(11) Cc1ccccc1NC(=O)CCn1c(=O)oc2ccccc21
(12) Cc1ccc(-c2csc(NC(=O)CN3CC(C)OC(C)C3)n2)cc1 (centres undefined)
(13) CC(=O)c1ccc(NC(=O)C(C)NCc2ccc(Cl)cc2)cc1 (centres undefined)
(14) Cc1ccc(C(=O)c2nccn2C)cc1C
(15) Cc1cc(=O)oc2cc(OCC(=O)N/N=C/c3ccccc3O)ccc12
(16) N#CCC(=O)Nc1ccccc1C(=O)O
Screen / compound no.	9	10	11	12	13	14	15	16
Rango-impB inh	0.1%	-0.2%	-0.7%	-3.6%	-1.3%	-0.3%	-4.4%	0.0%
GLA inh pH 4.5	4	-7	2	.	-11	.	.	8
Rango release inh	0%	1%	-3%	1%	9%	8%	-6%	-13%
miR-21 FLuc	-19%	0%	-2%	16%	-13%	-18%	-4%	-11%

3 of the entries above in order of the GLA inh pH 4.5 value, highest first:
(7) O=C(NCCCn1ccnc1)c1cccc(S(=O)(=O)Nc2ccccc2F)c1
(11) Cc1ccccc1NC(=O)CCn1c(=O)oc2ccccc21
(4) COc1ccc(/C(N)=N/OC(=O)Cc2cccs2)cc1
Screen / compound no.	7	11	4
Rango-impB inh	?	-0.7%	-5.6%
GLA inh pH 4.5	3	2	-3
Rango release inh	-4%	-3%	-4%
miR-21 FLuc	1%	-2%	-66%

Additional entries follow.
(17) CC(=O)Nc1n[nH]c(-c2ccc(C)cc2)c1C
(18) CCO[C@@H]1OC(C(=O)Nc2ccccc2)=C[C@H](c2coc3ccccc3c2=O)[C@H]1CCCO
(19) CCn1c(C(O)c2cccc(OC)c2OC)nc2ccccc21 (centres undefined)
(20) O=S1(=O)[C@H]2C[C@@H]3C=C[C@@]2(CN1Cc1cccc(F)c1)O3
(21) Cc1ccc(N=C2SC(C(=O)Nc3ccc(OC(F)(F)F)cc3)C(N)=C2C(=O)Nc2c(C)cc(C)cc2C)cc1 (centres undefined)
(22) COc1ccc(-c2coc3cc(OC(C)=O)ccc3c2=S)cc1
(23) Cc1c(NC(=O)CC(=O)Nc2c(C)n(C)n(-c3ccccc3)c2=O)c(=O)n(-c2ccccc2)n1C
(24) COc1ccc(NC(=O)C(=O)NNC(=O)C(C)Oc2ccc(Cl)cc2Cl)cc1 (centres undefined)
Screen / compound no.	17	18	19	20	21	22	23	24
Rango-impB inh	-0.5%	-3.0%	2.6%	-1.5%	-0.9%	?	1.7%	1.4%
GLA inh pH 4.5	4	-2	0	.	?	.	0	-7
Rango release inh	-24%	-2%	1%	-4%	22%	-13%	-1%	-9%
miR-21 FLuc	-13%	-22%	-2%	0%	?	.	-4%	5%

(25) COC(=O)C/C(O)=C(/N=Nc1cccc(C(F)(F)F)c1)C(=O)OC
(26) O=C(CCc1ccc(S(=O)(=O)NC2CCCCC2)cc1)NCc1ccccc1
(27) CCOC(=O)c1c(C)n(C)c2cc(Br)c(O)c(O)c12
(28) Clc1cccc(Cl)c1CSc1nnc(-c2sccc2-n2cccc2)o1
(29) Cc1nn(-c2ccccc2)c(C)c1C(=O)NCc1ccc(S(N)(=O)=O)cc1
(30) Cc1cc(O)cc(O)c1C=NCc1ccco1
(31) COc1ccc(OCc2nc3c4cc(OC)c(OC)cc4nc(=S)n3[nH]2)cc1
(32) Cc1cccc(N2CCN(c3cc(C)nc4nnnn34)CC2C)c1 (centres undefined)
Screen / compound no.	25	26	27	28	29	30	31	32
Rango-impB inh	0.9%	-2.1%	-0.1%	1.2%	1.9%	1.4%	1.0%	-2.8%
GLA inh pH 4.5	-1	-8	-14	-3	.	1	-8	2
Rango release inh	4%	0%	1%	16%	5%	21%	-11%	1%
miR-21 FLuc	-2%	1%	-7%	-27%	1%	10%	-8%	-4%

Taken from above.
Result of no. 29 in Rango-impB inh: 1.9%
Result of no. 26 in Rango-impB inh: -2.1%
Result of no. 31 in miR-21 FLuc: -8%
Result of no. 25 in miR-21 FLuc: -2%
Result of no. 28 in Rango-impB inh: 1.2%
Result of no. 27 in Rango release inh: 1%
Result of no. 30 in GLA inh pH 4.5: 1

The main list resumes, repeating the 4 entries before the break.
(29) Cc1nn(-c2ccccc2)c(C)c1C(=O)NCc1ccc(S(N)(=O)=O)cc1
(30) Cc1cc(O)cc(O)c1C=NCc1ccco1
(31) COc1ccc(OCc2nc3c4cc(OC)c(OC)cc4nc(=S)n3[nH]2)cc1
(32) Cc1cccc(N2CCN(c3cc(C)nc4nnnn34)CC2C)c1 (centres undefined)
(33) CC1CCCCN1C(=O)CCNC(=O)Cn1cnc2ccccc2c1=O (centres undefined)
(34) Cc1cc(N2CCCCC2)nc2c(C)cccc12
(35) COc1cccc(/C(C)=N/Nc2ncc(Cl)cc2Cl)c1
(36) O=C(N=Nc1c(O)[nH]c2ccccc12)c1ccccc1NS(=O)(=O)c1cccs1
(37) CCOc1ccc(C(C)=O)cc1Cc1c(O)nc(N)[nH]c1=O
(38) Cc1cc(C)c2nc(SCC(=O)NC(=O)c3cccn3C)cc(C)c2c1
(39) CC(C)(C)c1ccc(C(=O)NCc2ccccc2)cc1
(40) CC(=O)c1cc(-c2ccccc2)n(CC(=O)Nc2cccc(C)c2C)c1C
Screen / compound no.	29	30	31	32	33	34	35	36	37	38	39	40
Rango-impB inh	1.9%	1.4%	1.0%	-2.8%	-0.4%	-2.6%	-0.1%	1.3%	.	-2.9%	0.8%	0.9%
GLA inh pH 4.5	.	1	-8	2	.	1	0	-2	-4	1	-6	1
Rango release inh	5%	21%	-11%	1%	4%	-5%	-12%	9%	.	-7%	13%	-3%
miR-21 FLuc	1%	10%	-8%	-4%	9%	-2%	-72%	-7%	-10%	-1%	-62%	-1%

Some of the entries so far, in markdown:
| No. | SMILES | Rango-impB inh | GLA inh pH 4.5 | Rango release inh | miR-21 FLuc |
| --- | --- | --- | --- | --- | --- |
| 32 | Cc1cccc(N2CCN(c3cc(C)nc4nnnn34)CC2C)c1 (centres undefined) | -2.8% | 2 | 1% | -4% |
| 17 | CC(=O)Nc1n[nH]c(-c2ccc(C)cc2)c1C | -0.5% | 4 | -24% | -13% |
| 27 | CCOC(=O)c1c(C)n(C)c2cc(Br)c(O)c(O)c12 | -0.1% | -14 | 1% | -7% |
| 37 | CCOc1ccc(C(C)=O)cc1Cc1c(O)nc(N)[nH]c1=O | . | -4 | . | -10% |
| 22 | COc1ccc(-c2coc3cc(OC(C)=O)ccc3c2=S)cc1 | ? | . | -13% | . |

Continued:
(41) Cc1n[nH]c(C)c1S(=O)(=O)N1CCN(S(=O)(=O)c2ccccc2C#N)CC1
(42) COc1cc(OC)c(C(=O)Nc2ccc3ccccc3c2)cc1OC
(43) CN(C)c1ccc(-n2cccc2/C=C2/SC(=Nc3ccc(F)cc3)NC2=O)cc1
(44) O=c1c2ccccc2n2c(-c3ccc(F)cc3)nnc2n1Cc1ccccc1
(45) O=C1CN(S(=O)(=O)c2ccccc2)CCN1S(=O)(=O)c1ccccc1
(46) Cc1cccc(C(=O)Nc2ccc(N3CCN(S(C)(=O)=O)CC3)cc2)c1
(47) Cc1ccc(S(=O)(=O)Oc2cc(N)c3c(n2)CCC3)cc1
(48) O=C(N/N=C/c1ccc(OC(=O)c2cccs2)cc1)c1cccc(F)c1
Screen / compound no.	41	42	43	44	45	46	47	48
Rango-impB inh	-2.9%	?	-0.1%	0.4%	-0.6%	-1.8%	1.8%	-1.0%
GLA inh pH 4.5	.	.	-8	0	-1	2	-8	-6
Rango release inh	?	19%	11%	-15%	-5%	-4%	29%	-15%
miR-21 FLuc	.	-65%	-3%	-3%	0%	-24%	-9%	-51%

(49) CN(C)S(=O)(=O)c1cccc(NC(=O)COC(=O)c2cc(=O)c3ccccc3o2)c1
(50) CN1CCN(C(=O)c2cc3nc(-c4ccco4)cc(C(F)(F)F)n3n2)CC1
(51) O=C(NC(=S)Nc1ccccc1Br)c1cccnc1
(52) CC1=C(C(=O)OCCOC(C)C)C(c2cccc3ccccc23)NC(=O)N1 (centres undefined)
(53) O=C(Nc1ccc2c(c1)ncn2C1CCCCC1)c1ccco1
(54) Cc1ccc(C(=O)CCC(=O)Nc2cccnc2)cc1C
(55) CCOc1ccc(C(=O)OCC(=O)N2CCCC2)cc1OCC
(56) O=c1c2ccccc2oc2cc(NCCCN3CCOCC3)ccc12
Screen / compound no.	49	50	51	52	53	54	55	56
Rango-impB inh	6.8%	?	-0.7%	6.0%	2.8%	-2.5%	-0.1%	?
GLA inh pH 4.5	-6	1	.	.	-13	-11	.	.
Rango release inh	2%	?	-8%	-11%	8%	6%	8%	?
miR-21 FLuc	-1%	0%	-3%	.	-60%	-9%	-6%	-43%

(57) CCC/C(O)=C1\C(=O)CC(c2ccccc2)CC1=NCCc1c(C)[nH]c2ccc(C)cc12 (centres undefined)
(58) Cc1ccccc1NS(=O)(=O)c1ccc(C(=O)N2CCCC2)cc1
(59) Cc1ccc(S(=O)(=O)N[C@H](C(=O)OCC(=O)NC(=O)C2CCCCC2)C(C)C)cc1
(60) Cc1onc(-c2c(Cl)cccc2Cl)c1C(=O)Nc1ccc(N2CCOCC2)cc1
(61) COc1ccccc1NC(=O)/C(C#N)=C/c1c(C)nn(-c2ccc(F)cc2)c1Cl
(62) Cc1ccc(C(=O)COC(=O)CN2C(=O)C3CC=CCC3C2=O)cc1[N+](=O)[O-] (centres undefined)
(63) CCOc1cc(/C=N/NC(=S)Nc2ccccc2C(F)(F)F)ccc1OCC(=O)N1CCOCC1
(64) Cc1cc(NC(=O)c2cc3n(n2)C(C(F)(F)F)CC(c2ccco2)N3)n(-c2ccccc2)n1 (centres undefined)
Screen / compound no.	57	58	59	60	61	62	63	64
Rango-impB inh	0.4%	-1.3%	-0.6%	3.4%	-3.2%	-1.9%	-0.2%	0.4%
GLA inh pH 4.5	11	.	.	0	-2	.	0	-11
Rango release inh	2%	0%	10%	4%	9%	2%	-9%	-14%
miR-21 FLuc	-3%	.	.	-3%	-10%	.	2%	17%

(65) Brc1ccc(C2Nc3cccc4cccc(c34)N2)cc1
(66) CC(C)(C)OC(=O)N1CCCC(C(=O)Nc2ccc(C(=O)N3CCOCC3)cc2)C1 (centres undefined)
(67) CCN(CC(=O)Nc1ccc(NC(C)=O)cc1)C(=O)c1cccc(Oc2ccccc2)c1
(68) COc1ccc(-c2cc(C(=O)Nc3ccc(S(=O)(=O)Nc4ncccn4)cc3)c3ccccc3n2)cc1
(69) COc1ccccc1C(=O)Nc1cccc(Oc2c(F)c(F)c(F)c(F)c2F)c1
Screen / compound no.	65	66	67	68	69
Rango-impB inh	?	-3.7%	-0.9%	-2.8%	-1.1%
GLA inh pH 4.5	.	.	.	-4	-17
Rango release inh	1%	-12%	8%	-28%	22%
miR-21 FLuc	.	.	.	-39%	-11%

Screening results: PubChem BioAssay, National Center for Advancing Translational Sciences (NCATS)
